Screens as filed in PubChem.
BJeLR viability = kills HRASV12-expressing BJeLR cells | BJeLR (HRASV12) viability, CellTiter-Glo ATP luminescence, 48 h; reference of the scale not given here | inhibition, % (no concentration beside the values) | hit rate 0.17% among 300,000;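 active = replicate mean above 50%; inconclusive = above 50% but judged a plate artefact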;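 also: 50 nL library stock added to about 25 µL; numbers are from one replicate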
PrP 5UTR inh = inhibition of PrP 5' UTR reporter expression. cell-based PrP 5' UTR mRNA reporter, plate reader. hit rate 0.35% among 340,000. AID 488862. inhibition, % (concentration not given with the values);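 active = every replicate at 50% or more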;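 also: 0 = median of the neutral control wells; tested in H4 reporter cells; numbers are from one replicate; inactives centre near -14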
Sa ugtP lethal = growth inhibition of S. aureus ugtP deletion strain | S. aureus RN4220 ugtP deletion, OD600 growth, 16 h; some inactives read as strong as hits | growth inhibition, % (no concentration beside the values) | AID 1259309 | hit rate 0.54% among 330,000;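 active = z-score under -3 and OD600 up to 0.15 on both plates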;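 also: plate controls were untreated wells for no effect and antibiotic for full effect; wells of about 80 µL received 100 nL stock; the first replicate is given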
Mtb hypoxia rep = Mtb hypoxia fluorescent reporter inhibition; M. tuberculosis hypoxia-regulated fluorescent reporter, fluorescence; fluorescence inhibition, % (no concentration beside the values); hit rate 0.1% among 300,000; AID 1159583;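 active = 35 to 45% if threefold the growth effect, above 45% if 1.5-fold the growth effect; inactive = the rest, general growth blockers included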;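 also: wells of about 50 µL received 100 nL stock; 0% = vehicle wells and 100% = reference inhibitor wells; whole bacteria with a GFP reporter of the hypoxia response; strong numbers were not always called active; many hits fall short of the cut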
Bead autofluor = compound fluorescence in toxin protease inhibitor counterscreen; compound autofluorescence counterscreen, microsphere flow cytometry; stronger effect = higher value; fluorescence intensity (test concentration not listed); hit rate 3.1% among 360,000;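 active = at least 3 SD above the mean of all compounds, about 16000 in these data; inconclusive = too few beads counted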;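 also: 100 nL of 1 mM stock went into each well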
Sa RN4220 lethal = kills Staphylococcus aureus RN4220; hit rate 0.33% among 330,000; inhibition, % (concentration not given with the values); S. aureus RN4220 growth, OD600, 16 h; AID 1259311;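 active = z-score of -3 or lower and OD600 up to 0.18 on both plates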;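 also: plate controls were untreated cells for no effect and reference antibiotic for full effect; stock transfer was 100 nL into about 80 µL; one replicate is shown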
Mtb hypoxia rep growth = recorded beside Mtb hypoxia rep, whose call it bears; growth inhibition, %; measured here: M. tuberculosis growth (absorbance);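 0% = vehicle and 100% = reference antibiotic; read after six days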
* = called active by the depositor; ? = inconclusive; . = no result given.

SMILES | BJeLR viability | PrP 5UTR inh | Sa ugtP lethal | Mtb hypoxia rep | Mtb hypoxia rep growth | Bead autofluor | Sa RN4220 lethal
COC(=O)c1ccc(CSc2nnc3c(Cl)cc(Cl)cn23)o1 | 4 | -20 | -1 | 2 | -1 | 10439 | 0.4
[O-][n+]1onc2c3ccnnc3ccc21 | -18 | -17 | 2 | . | . | 5815 | -2.1
COc1ccccc1OCCNC(=O)c1ccc2c(c1)CCC2 | -7 | -42 | 11 | 2 | 10 | 6012 | -1.5
Fc1ccccc1-c1nc(-c2ccc(-c3nn[nH]n3)cc2)no1 | . | 14 | -9 | 9 | 13 | 2929 | 15
CO/N=C\CC(=O)Nc1ccc(F)cc1 | 1 | -9 | . | . | . | 10429 | .
CC1(OC(=O)C2CCCC2)C(=O)C=C2C=C(c3ccsc3)N(CCc3c[nH]c4ccccc34)C=C2C1=O (centres undefined) | -1 | -4 | -12 | 2 | 11 | 3595 | 1.7
N#Cc1ccc(C(=O)Nc2cc(-c3ccc(F)cc3)nn2-c2ccccc2)cc1 | . | -3 | 6 | 18 | 5 | 4016 | 3.9
CC(=NNC(=O)C1(C)CC1(Br)Br)c1cccc(NC(=O)c2ccc(C)o2)c1 (centres undefined) | . | . | -2 | 4 | 6 | . | 5.3
COc1ccc(NC(=O)c2cnn(-c3ccccc3)c2C)cc1 | 15 | -45 | 3 | 14 | 2 | 3704 | 4.6
O=C(CN1CCOCC1)Nc1ccc(OCc2ccccc2)cc1 | 2 | -16 | 10 | 5 | 4 | 6199 | 4.1
O=C(CC1OC(=O)c2ccccc21)Nc1cc(S(=O)(=O)N2CCOCC2)ccc1OCC(F)(F)F (centres undefined) | -4 | -13 | 1 | 13 | 0 | 4639 | 2.3
CCOc1ccc(OCC(=O)N2CCC3(CC2)CC(=O)c2ccccc2O3)cc1 | 1 | -16 | 2 | -3 | -8 | 4341 | 0.0
CCOC(=O)N1CCN(S(=O)(=O)c2ccc(C)c(C)c2)CC1 | -3 | -11 | -4 | 8 | 7 | 23015* | 4.4
O=C(c1cc2ccccc2oc1=O)N1CCN(c2ncccn2)CC1 | -3 | -48 | 3 | 8 | 13 | 8527 | 4.7
CC(/C=C/C=C/c1ccccc1)=N\NC(=O)c1cccnc1 | -5 | -19 | . | . | . | 3238 | .
COCCCn1c(-c2ccco2)nc2ccccc2c1=O | 6 | -13 | 0 | 6 | 10 | 3642 | 0.1
CC(C)Cc1nnc(NC(=O)CCC(=O)N2CCN(C3CCCC3)CC2)s1 | 0 | -11 | 0 | 2 | 3 | 5659 | 0.6
O=c1c2ccccc2nc(N/N=C/c2c(O)ccc3ccccc23)n1O | 29 | -19 | . | . | . | 2248 | .
NNC(=O)CNC(=O)c1cccc(Br)c1 | 4 | 0 | 8 | 0 | -3 | 2980 | 4.0
CC(=O)Oc1c(/C=C(\C#N)C(N)=O)[nH]c2ccccc12 | -4 | -24 | 87* | -12 | 8 | 2674 | 96*
Cc1cccc(C)c1NC(=O)N1CCC(C(=O)c2ccc(F)cc2)CC1 | 0 | 0 | 9 | 5 | -1 | 4076 | 3.7
CCOC(=O)C1CCCN1C(=O)C1(NC(C)=O)CCCC1 (centres undefined) | . | -6 | 11 | 10 | 10 | 3882 | 5.3
Cc1c(S(=O)(=O)N2CCCC2)c(=O)n(C)c(=O)n1C | -10 | 7 | 2 | -2 | 9 | ? | -0.5
Cc1ccc(S(=O)(=O)N2CCN(C(=O)CSc3nncs3)CC2)cc1 | -9 | -11 | 4 | 12 | 3 | 3393 | 0.3
CCC(CC)c1nnc(NC(=O)CN2C(=O)C3C4C=CC(C4)C3C2=O)s1 (centres undefined) | -1 | -6 | 6 | -2 | -6 | 2445 | 7.6
S=c1[nH]c2ccccc2n2c(=S)[nH]nc12 | 8 | -24 | 6 | -5 | -10 | 3031 | 5.2
COCc1c(C)cc(C)c(/C=N/O)c1C | 0 | 3 | . | . | . | 9754 | .
O=[N+]([O-])c1ccc(C=NN2CCN(c3ccncc3S(=O)(=O)N3CCCCC3)CC2)cc1 | . | . | -1 | 4 | 3 | . | 0.9
CCOC(=O)c1c(-c2ccc(OC)cc2)csc1NC(=O)CCN1C(=O)c2ccccc2C1=O | 3 | -11 | 4 | 4 | 3 | 11173 | 4.2
O=C(Cn1cncn1)N/N=C/c1ccc(Cl)cc1 | -7 | -26 | . | . | . | 2250 | .
CC1CCCN(c2nc(-c3cccnc3)nc3scc(-c4ccccc4)c23)C1 (centres undefined) | 8 | 1 | -29 | 6 | 5 | 2712 | 1.1
Cc1[nH]nc2c1C(CC(C)C)C(C#N)=C(N)O2 (centres undefined) | 6 | -29 | . | . | . | 4266 | .
COc1ccc(N2C(N)=NC(N)=NC2(C)C)cc1 | 6 | -20 | . | . | . | 4284 | .
COc1ccc(-c2csc(Nc3ccccc3)n2)cc1 | 3 | -6 | 14 | 5 | 9 | 4661 | -10
Cc1ccc(CNC(=O)c2ccccc2NS(C)(=O)=O)cc1 | -3 | -93 | -1 | . | . | 6006 | -1.0
C=CCOc1ccc(C(c2c(C(=O)O)[nH]c3ccccc23)c2c(C(=O)O)[nH]c3ccccc23)cc1 | 1 | -22 | 3 | 17 | 4 | 4003 | 25
COc1cc(C(=O)NCC(=O)N/N=C/c2cccnc2)cc(OC)c1OC | 2 | -21 | . | . | . | 3823 | .
COc1ccc(C)cc1NC(=O)CCS(=O)(=O)c1ccc2c(c1)CCN2C(C)=O | -4 | 2 | 0 | -8 | 7 | 1965 | 0.0
CN(C)C(=S)Nn1c(-c2ccccc2)nc2ccccc2c1=O | -5 | 2 | 11 | 1 | 1 | 2059 | 10
O=C(CSCc1nc2ccccc2[nH]1)N1CCN(c2ccc(F)cc2)CC1 | -1 | -8 | -1 | . | . | 4446 | 3.5
O=C(CSc1n[nH]c(-c2ccccc2)n1)Nc1ccc(N2CCOCC2)cc1 | -16 | -17 | 1 | 13 | 14 | 2496 | 5.4
C=CCn1c(-c2csc(-c3ccc(OC)c(OC)c3)n2)n[nH]c1=S | -10 | 5 | 0 | 20 | 12 | 4307 | 2.0
CC(=O)Nc1ccc(NC(=O)c2ccc(-c3ccc([N+](=O)[O-])cc3)o2)cc1 | 9 | -9 | -1 | 11 | 1 | 5520 | 6.7
Nc1c(C(=O)Nc2ccc(Cl)cc2)oc2ccccc12 | 3 | -118 | 13 | 9 | 9 | 4489 | 7.7
Cc1ccc(OCC(=O)Nc2ccc3oc(=O)ccc3c2)cc1C | -16 | 2 | -22 | -5 | -6 | 4444 | 0.1
c1csc(-c2ncc3ccccn23)c1 | -3 | -12 | 0 | . | . | 3405 | 3.0
CN(C)CCC1c2ccc(Cl)cc2CCc2cccnc21 (centres undefined) (tested in a mixture with another compound) | -5 | -19 | . | . | . | 3979 | .
O=C(CN1CCCN(S(=O)(=O)c2ccc(F)cc2)CC1)Nc1cccc(F)c1 | 8 | -7 | 3 | -4 | 9 | 6516 | -2.9

Reprinted at random: two entries already listed
SMILES | BJeLR viability | PrP 5UTR inh | Sa ugtP lethal | Mtb hypoxia rep | Mtb hypoxia rep growth | Bead autofluor | Sa RN4220 lethal
CC(=O)Nc1ccc(NC(=O)c2ccc(-c3ccc([N+](=O)[O-])cc3)o2)cc1 | 9 | -9 | -1 | 11 | 1 | 5520 | 6.7
COc1cc(C(=O)NCC(=O)N/N=C/c2cccnc2)cc(OC)c1OC | 2 | -21 | . | . | . | 3823 | .

The listing continues.
SMILES | BJeLR viability | PrP 5UTR inh | Sa ugtP lethal | Mtb hypoxia rep | Mtb hypoxia rep growth | Bead autofluor | Sa RN4220 lethal
Cc1ccc(NC(=O)CCNC(=O)c2ccc(Cl)cc2)nc1 | 5 | -38 | 13 | -1 | -7 | 3970 | 4.4
O=C(O)CCCCCCCCc1cn(CC2CCCCC2)nn1 | -1 | -2 | -4 | 19 | 23 | 3047 | 3.9
CC1CCCN(C2=NC(=O)/C(=C/c3cn(-c4ccccc4)nc3-c3cccc(S(=O)(=O)N(C)C)c3)S2)C1 (centres undefined) | 1 | -23 | . | . | . | 2994 | .
COc1ccccc1CNC(=O)CCNS(=O)(=O)c1ccc2c(c1)CC(C)N2C(C)=O (centres undefined) | -8 | -20 | 13 | 1 | 4 | 5622 | 4.4
CN(C)C=NC(=S)Nc1cc(Cl)cc(Cl)c1 | . | . | -12 | 0 | 14 | . | -2.7
CN(C)S(=O)(=O)c1cccc(C(=O)Nc2ccccc2Cl)c1 | 1 | -22 | 8 | 4 | 2 | 11250 | 3.2
CCOC(=O)C1C(=O)N(C(=O)c2ccc(OC)cc2)CC1c1ccccc1 (centres undefined) | 8 | -12 | 2 | -2 | 1 | 14741 | 3.0
CC(C)(C)NC(=O)CSc1nnc(-c2ccccn2)n1Cc1ccccc1 | 3 | 0 | 4 | 16 | 3 | 3687 | 3.9
COc1cc(/C=N\NC(=O)CC(=O)NCCc2ccccc2)ccc1O | 9 | -6 | . | . | . | 4883 | .
CC(=O)Nc1sc2c(c1C(c1cccs1)N1CCOCC1)CCCC2 (centres undefined) | 11 | -14 | -5 | 2 | 3 | 2522 | -8.4
CCOc1cc(N2CCOCC2)c(OCC)cc1NC(=O)COc1ncnc2ccccc12 | -5 | -10 | -5 | -2 | -7 | 19880* | 5.3
Cc1ccc(C(=O)OCC(=O)Nc2ccccc2C(F)(F)F)cc1S(=O)(=O)N1CCOCC1 | -1 | -17 | 11 | . | . | 3707 | 0.9

Next part; it opens with the six that closed the last part.
SMILES | BJeLR viability | PrP 5UTR inh | Sa ugtP lethal | Mtb hypoxia rep | Mtb hypoxia rep growth | Bead autofluor | Sa RN4220 lethal
CCOC(=O)C1C(=O)N(C(=O)c2ccc(OC)cc2)CC1c1ccccc1 (centres undefined) | 8 | -12 | 2 | -2 | 1 | 14741 | 3.0
CC(C)(C)NC(=O)CSc1nnc(-c2ccccn2)n1Cc1ccccc1 | 3 | 0 | 4 | 16 | 3 | 3687 | 3.9
COc1cc(/C=N\NC(=O)CC(=O)NCCc2ccccc2)ccc1O | 9 | -6 | . | . | . | 4883 | .
CC(=O)Nc1sc2c(c1C(c1cccs1)N1CCOCC1)CCCC2 (centres undefined) | 11 | -14 | -5 | 2 | 3 | 2522 | -8.4
CCOc1cc(N2CCOCC2)c(OCC)cc1NC(=O)COc1ncnc2ccccc12 | -5 | -10 | -5 | -2 | -7 | 19880* | 5.3
Cc1ccc(C(=O)OCC(=O)Nc2ccccc2C(F)(F)F)cc1S(=O)(=O)N1CCOCC1 | -1 | -17 | 11 | . | . | 3707 | 0.9
NC(N)=N/N=C/c1ccccc1 | 8 | -4 | . | . | . | 9123 | .
Cn1c(=O)[nH]c(=O)c2c1nc(N1CCCCCC1)n2CCCSc1nnnn1-c1ccccc1 | -3 | . | 0 | 11 | 11 | . | 6.0
CC1(C)Cc2cccc(OCC(=O)OCc3nnc(-c4ccccc4)o3)c2O1 | . | -6 | 1 | 4 | -1 | 6137 | 4.0
C#CCOc1ccccc1C(N)=O | -4 | . | 13 | 12 | 12 | 4472 | 7.2
C/C(=N\NC(=O)COc1cc(C)cc(C)c1)c1ccc(N2CCOCC2)cc1 | 4 | -3 | . | . | . | 2086 | .
CC(C)N1CC(C(=O)Nc2cc(Cl)cc(Cl)c2)CC1=O (centres undefined) | -4 | -8 | -6 | -4 | 6 | 4255 | 3.8
Cc1nnc(SCc2ccccc2Cl)n(N)c1=O | -2 | -56 | . | . | . | 4083 | .
CC(C)(C)c1cc(C=C(C#N)C#N)cc(C(C)(C)C)c1O | . | 29 | 25 | 15 | 17 | 4438 | 50
O=C(c1ccc(NS(=O)(=O)c2ccc(F)cc2)cc1)N1CCN(c2ccccc2O)CC1 | 4 | -17 | -6 | 1 | 8 | 5490 | 4.5
COc1ccccc1C(=O)Nc1ccc2nc3n(c(=O)c2c1)CCCC3 | 4 | -5 | 1 | -14 | -3 | 4023 | 2.6
O=C(CN1C(=O)CSc2ncccc21)Nc1cccc(Cl)c1 | -3 | -2 | -6 | -16 | 8 | 4544 | -11
